hNpr1 antagonist: Natriuretic polypeptide receptor (hNpr1) antagonism - Primary qHTS | HEK293 hNpr1 GloSensor cGMP, ANP-stimulated luminescence | Potency, µM (titrated, usually from 46.3 µM), without a hit: at the highest dose activity change, negative = inhibition, actives largely listed as inhibitors | actives 1.6% (n = 76,000) | AID 1347048, 2019; active = well fitted inhibition curve with a large enough effect; inconclusive = small, poorly fitted or top-dose-only effect; inactive = no such curve, though single readings can be large or run the other way;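 also: nearly all actives have a fitted effect of over 60% in size; nearly all hits also lower the signal before the agonist is added; a reference antagonist and vehicle were the controls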
Target sequence (P16066 whole entry, looked up): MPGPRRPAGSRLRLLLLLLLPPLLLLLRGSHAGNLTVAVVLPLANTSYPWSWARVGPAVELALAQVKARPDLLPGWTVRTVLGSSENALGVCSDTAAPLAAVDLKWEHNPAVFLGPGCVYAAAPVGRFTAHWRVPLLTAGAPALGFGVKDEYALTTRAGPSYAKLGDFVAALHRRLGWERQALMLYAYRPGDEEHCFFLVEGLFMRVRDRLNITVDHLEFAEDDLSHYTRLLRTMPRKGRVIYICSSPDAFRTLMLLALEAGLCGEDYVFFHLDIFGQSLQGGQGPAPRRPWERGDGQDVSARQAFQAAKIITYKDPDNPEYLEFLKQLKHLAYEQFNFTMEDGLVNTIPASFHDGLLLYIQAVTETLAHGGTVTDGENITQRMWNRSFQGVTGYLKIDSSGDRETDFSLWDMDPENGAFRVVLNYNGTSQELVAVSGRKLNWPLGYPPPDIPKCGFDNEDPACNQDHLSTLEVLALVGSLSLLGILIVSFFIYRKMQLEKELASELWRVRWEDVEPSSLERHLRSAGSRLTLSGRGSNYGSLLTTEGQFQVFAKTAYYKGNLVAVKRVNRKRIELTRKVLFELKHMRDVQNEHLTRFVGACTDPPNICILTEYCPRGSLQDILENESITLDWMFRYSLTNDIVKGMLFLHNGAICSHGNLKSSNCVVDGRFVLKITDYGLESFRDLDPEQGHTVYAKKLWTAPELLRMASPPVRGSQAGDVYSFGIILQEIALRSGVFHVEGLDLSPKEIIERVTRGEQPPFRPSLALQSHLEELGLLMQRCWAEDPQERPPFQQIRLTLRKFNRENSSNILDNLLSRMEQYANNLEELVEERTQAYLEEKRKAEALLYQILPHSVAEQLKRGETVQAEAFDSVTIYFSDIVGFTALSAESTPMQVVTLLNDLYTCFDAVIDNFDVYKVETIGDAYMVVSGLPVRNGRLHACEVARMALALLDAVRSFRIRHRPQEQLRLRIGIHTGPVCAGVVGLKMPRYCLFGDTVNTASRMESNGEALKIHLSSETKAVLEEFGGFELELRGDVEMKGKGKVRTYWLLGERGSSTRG
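HEK293 cells stably expressing human Npr1 and cGMP GloSensor pGS-40F, loaded 2 h with 2% GloSensor reagent, given compound 30 min at room temperature. Luminescence read before and 20 min after 0.1 nM hNppA.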
The depositor's hits bear a star; ? = inconclusive; & = joins results of further samples; [ ] = dose if it differs, or a comment. % is scaled to controls: 0 for no effect and ±100 for the full control effect; potency is read from the fitted curve at half-maximal effect.

The first six records (preview)
SMILES	hNpr1 antagonist
Cc1ccc(F)cc1-n1nc(-c2c(C)nc3scc(CC(=O)NCC(C)C)n3c2=O)cc1C	-7.8%
COCCNC(=O)[C@H]1C[C@H](Oc2ccccc2)CN1Cc1cccn1C	4.9%
CCCNC(=O)C(NC(=O)c1cccc(OC)c1)C1CCN(C(=O)COC)CC1 (stereo not drawn)	2.8%
CNC(=O)[C@@H]1CN(C(=O)CCn2nc(C)cc2C)C[C@H]1c1n[nH]c(C)n1	9.0%
Cc1cn2nc(C(=O)Nc3ccc(F)cc3F)cc2c(N(C)Cc2ccccc2)n1	5.2%
CCn1c(CO)nnc1C1CC(NC(=O)c2[nH]c3ccc(OC)cc3c2C)C1 (stereo not drawn)	7.6%

Main list, previewed entries included:
SMILES	hNpr1 antagonist
Cc1ccc(F)cc1-n1nc(-c2c(C)nc3scc(CC(=O)NCC(C)C)n3c2=O)cc1C	-7.8%
COCCNC(=O)[C@H]1C[C@H](Oc2ccccc2)CN1Cc1cccn1C	4.9%
CCCNC(=O)C(NC(=O)c1cccc(OC)c1)C1CCN(C(=O)COC)CC1 (stereo not drawn)	2.8%
CNC(=O)[C@@H]1CN(C(=O)CCn2nc(C)cc2C)C[C@H]1c1n[nH]c(C)n1	9.0%
Cc1cn2nc(C(=O)Nc3ccc(F)cc3F)cc2c(N(C)Cc2ccccc2)n1	5.2%
CCn1c(CO)nnc1C1CC(NC(=O)c2[nH]c3ccc(OC)cc3c2C)C1 (stereo not drawn)	7.6%
Cc1cn2nc(C(=O)N3CCC(NC(=O)c4sccc4C)CC3)cc2c(=O)[nH]1	14.1%
CN(CC1CCOCC1)S(=O)(=O)c1ccc(F)cc1F	1.6%
O=C(CC1CCCC1)Nc1cnc(-c2cccnc2)nc1	-14.4%
CC(C)c1nnc(C2CN(C(=O)CCc3c[nH]c4ccccc34)CC23CCOCC3)o1 (stereo not drawn)	-0.2%
Cc1cc2nc3n(c(=O)c2n1CC(=O)Nc1cccc(Cl)c1)CCC3	-16.0%
O=C(Nc1ccc(C2(C(=O)NCc3ccco3)CCCCC2)cc1)C1CC1	-7.6%
CC(=O)Nc1ccc(CN2CC3(C2)C(=O)N(Cc2ccc(C)o2)C(=O)[C@@H]2C[C@@H](O)CN23)cc1	-3.4%
COc1ccc(-c2cn(C)c(=O)n3cc(CN(C)C)nc23)cc1OC	3.3%[70.6 µM]
CC(C)CNC(=O)C(C)(C)Oc1nn(CC2CC2)c2ccc(CN3CCCC3)cc12	3.1%[70.6 µM]
Cc1ccc(C)c(NC(=O)N2CCCC(c3noc(COc4ccccc4F)n3)C2)c1 (stereo not drawn)	7.0%
O=C(NCc1ccccc1)c1nnn2c1COC(c1ccc(Cl)cc1)C2 (stereo not drawn)	2.5%
O=S(=O)(N[C@H]1CO[C@H]2[C@@H]1OC[C@@H]2n1cc(CC2CCCCC2)nn1)c1cccs1	-26.2%
c1csc(-c2ccnc(N[C@H]3CO[C@H]4[C@@H]3OC[C@@H]4NCC3CCCCC3)n2)c1	7.94µM*
CC(C)Oc1ccc(CNC(=O)c2noc(-c3ccc[nH]c3=O)n2)cc1	-2.9%
O=C1CCN(C(=O)COc2ccccc2)CCCCCCN1	-13.6%
COCCNC(=O)CCC[C@@H]1[C@H]2CCCN3CCC[C@@H](CN1Cc1ccccc1)[C@@H]23	-2.1%
O=C(COc1ccccc1)Nc1ccc([C@@H](O)[C@H]2COCC(=O)N2Cc2ccccc2F)cc1	-3.0%
Cc1ccc(C(=O)NC2CCN(C(=O)N3CC4CC(C3)[C@H]3CCCC(=O)N3C4)CC2)cn1 (stereo partly drawn)	1.8%
Cc1ccc(C)c(NC(=O)Cn2nc3n(c2=O)CCCC3)c1	5.9%
CCN1c2cc(C(=O)Nc3ccc(F)c(F)c3)ccc2C(=O)N2CCCCCC21 (stereo not drawn)	-17.2%
O=C(c1ccc2c(c1)OCO2)N1C[C@@H]2C[C@H](C1)c1ccc(-c3cccc(C(F)(F)F)c3)c(=O)n1C2	3.2%
Cc1cccc(N(C)C(=O)Cn2c(=O)n(-c3ccc(F)cc3)c(=O)c3c2cc(C)n3C)c1	-1.6%
O=C(N[C@@H]1CCOC[C@H]1Oc1ccccn1)c1cccc2c1OCCO2	-17.3%
Cc1ccc(O)c(CN2CC[C@@H](c3ccc(F)cc3)[C@H](O)C2)c1	-7.0%

Next part:
SMILES	hNpr1 antagonist
c1cc2nc(-c3ccsc3)[nH]c2cn1	-10.4%[70.6 µM]
O=C(NCc1cccs1)C1=NO[C@@H]2CN(c3cccnc3)C[C@H]12	-6.7%[70.6 µM]
O=C(CCc1nnn2c1CN(C(=O)C1CCCC1)CC2)N1CCOCC1	2.5%
Cc1cccc(C(=O)N2CCC(C(NC(=O)c3ccccc3)C(=O)N3CCCCC3)CC2)c1 (stereo not drawn)	-3.7%
CCC(=O)N1CCC(Oc2ccc(NC(=O)Cc3ccncc3)cn2)C1 (stereo not drawn)	3.5%
Cc1cnc(C2CC2)n1C1CCCN(C(=O)C2CCC2)C1 (stereo not drawn)	0.6%
O=C(Cn1ccn2nc3c(c2c1=O)CCCCC3)Nc1ccc(F)c(F)c1	?
CCCN(Cc1nccn1C)C(=O)c1sc(C(C)C)nc1C	-0.6%
COc1cccc(CNC(=O)CN2C(=O)NC3(CCC(C(C)(C)C)CC3)C2=O)c1 (stereo not drawn)	1.4%
Cc1nnc(-c2cc(-c3cccc(N(C)C)c3)ccn2)n1Cc1ccccc1	4.1%[70.6 µM]
COc1ccc([C@H]2C[C@@H](O)[C@@H](O)[C@@H]2NC(=O)c2cccnc2Oc2ccccc2)cc1	-1.6%[70.6 µM]
COCC1CN(C(=O)NCc2ccc(F)cc2)CC12CCNCC2 (stereo not drawn)	0.7%
Cc1ccccc1C(=O)NC1CCCN(c2cc(-c3ccccc3)[nH]n2)C1 (stereo not drawn)	-11.8%
Cc1ccc(-n2c(C3CCN(C(=O)Cc4ccccc4)CC3)n[nH]c2=O)cc1	4.9%
Clc1cccc(CN2CC(CNc3cccnc3)C3(C2)CN(c2ccccc2)C3)c1 (stereo not drawn)	-20.3%[70.6 µM]
COc1ccc2[nH]c(=O)c(CCC(=O)NC(C)c3cn(C)nc3C)cc2c1 (stereo not drawn)	1.7%
Cc1ccccc1NC(=O)N1c2ccccc2CC1c1noc(C2CCOCC2)n1 (stereo not drawn)	1.1%
COCCNC(=O)C1(C)CCc2cnc(NCc3ccccc3)nc21 (stereo not drawn)	7.5%[70.6 µM]
Cc1ccc2c(c1)nc1n2[C@@H](CNCc2nc3ccccc3n2C)COC1	?
Cc1nn(-c2ccccc2)c(Oc2cccc(F)c2)c1CCC(=O)NC(C)C	-3.3%
Cn1cc([C@@H](NC(=O)c2scc3c2CCCC3)C2CC(O)C2)cn1 (stereo partly drawn)	4.7%&1.5%
COc1ccc(C(=O)N2CCC3(CC2)NC(=O)N(c2cccc(Cl)c2)N3)cc1	0.0%
CCOc1ccc(CC(=O)N2CCC[C@H]2c2nc(-c3ccc(C)cc3)no2)cc1	-1.8%
CCCNC(=O)Cc1ccc(N(Cc2cccc(C)c2)C(=O)c2ccco2)cc1	-0.2%
Cn1c(=O)c2ccnn2c2ccc(C(=O)Nc3ccc4c(c3)OCCO4)cc21	-27.3%
CNC(=O)[C@@H]1C[C@H](Oc2ccccc2)CN1S(=O)(=O)Cc1ccccc1	6.6%
COC[C@@H]1CN(S(C)(=O)=O)C[C@H]1c1ccncc1	7.9%
O=C1N(Cc2ccccc2F)CCOC12CCN(Cc1ccc(F)cc1F)CC2	-22.2%[70.6 µM]
CC(C)CN1CCc2[nH]cnc2C12CCN(C(=O)c1n[nH]c3c1CCC3)CC2	-1.4%
C#CCNC(=O)c1nc(-c2ccsc2)c2cnccn12	0.0%[70.6 µM]

Further records follow:
| canonical_smiles | hNpr1 antagonist |
| --- | --- |
| O=C(c1ccc(C2CCCNC2)cc1)N1CCCN(c2ncccn2)CC1 (stereo not drawn) | 1.4% |
| CC(=O)Oc1c(-c2ccc(NC(=O)c3ccco3)cc2)c(-c2cccc(C)c2)nn1-c1cccc(F)c1 | -13.2% |
| O=C(NC[C@H]1O[C@@H](CO)[C@@H](O)[C@H]1N1CCN(c2ccc(F)cc2)CC1)c1cccc(F)c1 | 4.3% |
| O=C1c2cnc(-c3cccc(O)c3)nc2OCCN1Cc1ccc(F)cc1F | -17.8%[70.6 µM] |
| Cc1cccc(-c2cccc(NC(=O)C3CCCN(C(=O)c4cccc(C)n4)C3)c2)c1 (stereo not drawn) | -1.7% |
| O=C1CCN(S(=O)(=O)c2cccc(F)c2)CCCC(CO)CCN1 (stereo not drawn) | 7.7% |
| O=C(c1cc(-c2ccccc2)n[nH]1)N1CCCC(Cc2noc(-c3cnccn3)n2)C1 (stereo not drawn) | 2.1% |
| Cc1ccccc1C(=O)Nc1ccnn1C1CCN(C(=O)CN)CC1 | 0.9% |
| Cc1ccc(Cl)cc1NC(=O)N1CCC(n2cnnc2C2CC2)C1 (stereo not drawn) | 0.8% |
| COc1ccc(-c2nc(CN3CCOC(CN)C3)c(C)o2)c2ccccc12 (stereo not drawn) | 2.9% |
| CSCC[C@@H]1NC(=O)c2cc(NC(=O)c3cc(-c4cccnc4)n[nH]3)ccc2NC1=O | 7.9% |
| Cc1ncsc1C1N(C2CCN(C(=O)c3cnccn3)CC2)C(=O)C12CCCC2 (stereo not drawn) | 9.6% |
| O=C(C1CCCC1)N1CCC(Oc2ccccc2)C1 (stereo not drawn) | -1.6% |
| COCCN1CCCCCC(O)c2cc(C(=O)NCCc3ccccn3)ccc21 (stereo not drawn) | -3.9% |
| Cc1nnc([C@@H]2CC(F)(F)CN2C(=O)c2occc2C)o1 | 4.4% |
| Fc1cccc(-c2cnc(Nc3ccc(N4CCOCC4)cc3)c3c2CCO3)c1 | -28.4%[70.6 µM] |
| O=C1N(CCc2ccccc2)CCOC12CCN(Cc1ccc3c(c1)CCO3)CC2 | -5.4%[70.6 µM] |
| CCC(=O)N1CCC(Oc2ccc(C(=O)N3CCOCC3)cn2)CC1 | 3.8% |
| CC(=O)Oc1ccccc1C(=O)Nc1ccc2c(c1)CN(CCc1ccc(F)cc1)C(=O)C(C)O2 (stereo not drawn) | 15.8µM* |
| COc1ccccc1-c1cc(C(=O)NC(C)C)c2cnn(C)c2n1 | 23.1%[70.6 µM] |
| CNC(=O)[C@@H]1CN(C(=O)Cn2nc(C(F)(F)F)cc2C)C[C@H]1CO | 1.3% |
| COc1ccc(O[C@H]2COCCN(C(=O)COc3ccccc3)C2)cc1 | -21.1%[70.6 µM] |
| Cc1ccc(CC(=O)NC2CCN(c3cc(C(F)(F)F)ncn3)CC2)cc1 | ? |
| CC(C)(C)c1cnc([C@@H]2COCCN2C2CCCCC2)[nH]1 | -1.0%[70.6 µM] |
| O=C(NC1CCCC1)N1CCCC(c2noc(COc3ccccc3)n2)C1 (stereo not drawn) | -21.1% |
| NC(=O)c1ccc(-c2ncc3cnc(-c4cccc(F)c4)cn23)cc1 | 6.7%[70.6 µM] |
| N#Cc1cccc(C(=O)N2CCC3(CC2)NC(=O)N(Cc2ccc(Cl)cc2)C3=O)c1 | ? |
| CCN(CC)CCNC(=O)C12CCCC=C1N(c1ccccc1)C(=O)CC2 (stereo not drawn) | -6.5% |
| Fc1ccc(CN2CCC3(CC(Cc4ccccc4)=NO3)C2)cc1 (stereo not drawn) | 4.0%[70.6 µM] |
| COc1ccc(C2Cn3cnc(C(=O)N4CCC(C(=O)Nc5cccc(F)c5)CC4)c3CO2)cc1 (stereo not drawn) | -29.0% |

Additional compounds follow:
| canonical_smiles | hNpr1 antagonist |
| --- | --- |
| COCCCNC(=O)c1c(C)oc2c1CN(Cc1ccc(F)cc1)CC2 | -2.5% |
| CC1=NOC2(CCN(C(=O)c3ccc(C(F)(F)F)cc3)CC2)C1 | 4.7%[70.6 µM] |
| CCCN(CC1CCOC1)C(=O)Nc1ccc(C(F)(F)F)cc1 (stereo not drawn) | -13.1% |
| Clc1cc(N2CCC(N3CCOCC3)CC2)n2nccc2n1 | 18.3%[70.6 µM] |
| COc1cccc(CN2CCC(Cc3ncc(C)n3Cc3ccccc3)C2)c1 (stereo not drawn) | -19.1% |
| Cc1cccc2c(C(=O)N(C)C(C)Cc3ccccn3)cc(-c3cnc(N)nc3)nc12 (stereo not drawn) | -1.8% |
| CCn1cc(S(=O)(=O)N2C[C@@H](C(N)=O)[C@H](c3n[nH]c(C)n3)C2)cn1 | 2.4% |
| O=C1NCCOCCCN(C(=O)NC2CCCCC2)[C@H]2CCC[C@@H]12 | -0.1% |
| COCCN1C(=O)c2ccccc2C(C(=O)NC2CCCC2)C12CCCCC2 (stereo not drawn) | 3.2% |
| COCC(=O)NC1CCC12CCN(Cc1ccc(F)c(F)c1)CC2 (stereo not drawn) | -1.0% |
| O=C(c1ccc(-n2cnnc2)cc1)N1CCC2(CCCO2)CC1 | 4.8% |
| CC(=O)N1CCC(C(=O)N[C@H](Cc2ccccn2)C2CC(O)C2)CC1 (stereo partly drawn) | 1.6% |
| Cc1ccc(CNC(=O)C2CCN(C(=O)c3nnn4cc(C)[nH]c(=O)c34)CC2)cc1 | 0.0% |
| CC(C)CCN1CCC(Cc2ccc(C(=O)NC3CC3)cc2)CC1 | -2.9% |
| COc1ccc(-c2nc3cc(C)ccc3cc2CN2CC[C@@H](O)C2)cc1OC | -13.1% |
| Cc1ccccc1-c1onc(C)c1C(=O)NCCc1ccc(F)cc1 | -1.4% |
| CCCCC1C=CCN1S(=O)(=O)c1cccc(C(=O)NCC(F)(F)F)c1 (stereo not drawn) | -20.3% |
| CN(C)c1ccc(CN[C@H]2CO[C@H]3[C@@H]2OC[C@H]3OC(=O)Nc2ccc(Oc3ccccc3)cc2)cc1 | ? |
| O=C([C@H]1C[C@H](Oc2cccnc2)CN1S(=O)(=O)Cc1ccccc1F)N1CCOCC1 | -2.0% |

These rows are one share of the data, so the mix of outcomes need not match the whole.
